NPYLR7 ag – mosquito NPYLR7 agonism | HEK293T NPYLR7/Galpha15, GCaMP6s calcium fluorescence | AID 1259423 | activation, % at 10 µM | 0.15% of 270,000 active; in the data active means activation above about 40%;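 further: 0% = vehicle and 100% = reference agonist at the receptor; some compounds past the cut are filed as inactive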
NPYLR7 ag max-min – second read-out of NPYLR7 ag, no call of its own (marks repeat the call); activation, %; measured here: Max-Min RFU normalised activation; some inactives read as strong as hits;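 span of the calcium signal over five minutes; 0% = vehicle and 100% = native peptide agonist; compound fluorescence can raise it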
* hit, by the source's call.

SMILES	NPYLR7 ag	NPYLR7 ag max-min
CC(C)C[C@@H](CN)CC(=O)O	4	-9

Screens (PubChem BioAssay)

A portion of the library, so the mix of outcomes need not match the whole.
